ALR H2O2 inh: inhibitors of human sulfhydryl oxidase ALR. P55789. purified ALR, DTT oxidation, H2O2 HRP-luminol luminescence. inhibition, % (concentration not given with the values). 290,000 tested, 3.8% active;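 active = mean and each replicate at 75% or more; inconclusive = only one of the two met; inactive = neither met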;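 also: stock transfer was 7.5 nL into about 7.5 µL; 0% = neutral wells and 100% = wells with inactivated enzyme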
Target sequence (P55789 whole entry, looked up): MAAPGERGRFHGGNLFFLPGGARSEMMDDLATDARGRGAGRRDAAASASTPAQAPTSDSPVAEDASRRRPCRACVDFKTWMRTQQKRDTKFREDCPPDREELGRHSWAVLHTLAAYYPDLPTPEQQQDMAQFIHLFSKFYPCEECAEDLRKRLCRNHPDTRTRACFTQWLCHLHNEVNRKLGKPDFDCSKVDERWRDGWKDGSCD
E coli growth: blocks Escherichia coli growth | OD600, 23 h; active compounds read low | 330,000 tested, 0.21% active | AID 1053175 | OD600 absorbance (test concentration not listed);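 active = OD600 absorbance below the run mean of sample wells minus 3.6 SD, in any replicate, cut at about 0.56 in these data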;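 also: stock transfer was 300 nL into about 60 µL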
HNF4A DNA FP: change in binding of human HNF4 alpha to DNA. AID 1224865. activity change, % at 10 µM. P41235. 360,000 tested, 0.3% active. HNF4a-FITC DNA binding, fluorescence polarization, 1 h; in the data active = activity change above about 30%, passing the limit was not always enough;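 also: controls were the assay level and a saturating level of protein; the project sought stronger binding though the title names inhibitors; some compounds called inactive have numbers as strong as hits; positive values seem to mean higher polarization but the record does not say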
FGF22 binding: shifts melting point of recombinant human FGF22. 340,000 tested, 1.5% active. calls only at 9.99 µM. recombinant FGF22 thermal shift, SYPRO orange fluorescence; percent of sucrose octasulfate shift, DMSO zero. AID 651658. Q9HCT0;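 active = melting point raised past a set limit in the mean and every replicate; inconclusive = no clear call; three in four hits are not shown here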
Target sequence (Q9HCT0 whole entry, looked up): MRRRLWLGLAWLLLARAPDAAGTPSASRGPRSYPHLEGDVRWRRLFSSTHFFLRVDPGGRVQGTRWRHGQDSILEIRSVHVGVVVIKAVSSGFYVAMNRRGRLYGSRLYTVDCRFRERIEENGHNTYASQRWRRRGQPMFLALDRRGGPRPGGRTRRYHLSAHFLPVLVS
Ecoli rRNA inh: inhibitors of bacterial rRNA selective over humanized ribosomes | E. coli WT GFP vs humanized-ribosome RFP mutants, fluorescence, 24 h; active compounds read low; DMSO median 0, no signal -100 | GFP signal change (wild-type ribosome), % (test concentration not listed) | 350,000 tested, 1.6% active | AID 720706;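 active = significant combined selectivity score with lowered wild-type GFP, culture density cut under 30%, mutant RFP and density less affected; inactive = any of these conditions unmet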; also: one replicate is shown; some compounds called inactive have numbers as strong as hits
AF4-AF9 inh: inhibitors of human MLL-AF4/AF9 interaction | 350,000 tested, 0.47% active | AlphaScreen, biotin-AF4 peptide binding to FLAG-AF9 | P42568 | inhibition, % at 10 µM;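 active = every replicate reaching a set inhibition limit, whatever the replicate mean, cut at about 25% in these data; inconclusive = mean inhibition reaches that limit but some replicates miss it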;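 also: 0% = plate neutral control median and 100% = total signal loss; the record names both 10 and 1 µM as test concentration; the first replicate is given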
Target sequence (P42568 whole entry, looked up): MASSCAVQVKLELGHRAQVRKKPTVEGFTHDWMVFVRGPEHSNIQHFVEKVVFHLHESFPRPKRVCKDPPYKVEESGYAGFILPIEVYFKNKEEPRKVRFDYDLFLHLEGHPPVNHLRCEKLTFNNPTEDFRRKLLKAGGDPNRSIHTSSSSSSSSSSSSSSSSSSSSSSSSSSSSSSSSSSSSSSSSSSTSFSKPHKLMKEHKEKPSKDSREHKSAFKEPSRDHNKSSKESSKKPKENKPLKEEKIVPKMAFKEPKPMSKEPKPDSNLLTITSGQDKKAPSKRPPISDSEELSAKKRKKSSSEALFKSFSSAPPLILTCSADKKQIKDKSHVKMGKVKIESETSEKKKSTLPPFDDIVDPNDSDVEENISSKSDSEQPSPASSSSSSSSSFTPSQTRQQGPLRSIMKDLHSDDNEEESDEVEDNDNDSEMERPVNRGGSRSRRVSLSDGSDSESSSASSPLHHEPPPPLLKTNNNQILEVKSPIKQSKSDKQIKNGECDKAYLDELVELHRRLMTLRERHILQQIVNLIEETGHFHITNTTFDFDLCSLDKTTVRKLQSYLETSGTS
Vif TR-FRET: HIV-1 Vif–A3G interaction blockers – biochemical, TR-FRET, GST-Vif 1-94, biotin-A3G peptide, dose response retest, primary screen (AID 1117319). TR-FRET GST-Vif / biotin-A3G peptide binding; higher % means a stronger effect; test concentration not given here; strong numbers were not always called active. inhibition, %; hits with a dose series show IC50 in µM. 260,000 tested, 0.57% active;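 active = above the screen mean plus three standard deviations and confirmed in dose response; inconclusive = results disagree or hit not tested in dose response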;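 also: Vif residues 1-94 fused to GST binding biotinylated APOBEC3G peptide 110-148; 0% = full assay without inhibitor and 100% = GST in place of GST-Vif; retest series ran down from 100 µM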
Ecoli rRNA inh OD600: further read-out of Ecoli rRNA inh, marked with its call; OD600 change, %; measured here: OD600 growth;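 optical density of the mix in the first replicate; 0 = DMSO median and -100 = no signal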
Ecoli rRNA inh RFP: recorded beside Ecoli rRNA inh, whose call it bears; RFP signal change, %; measured here: RFP humanized mutant strains;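 first replicate; 0 = DMSO median and -100 = no signal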
* = called active by the depositor; i = inactive; u = inconclusive; x = not tested or not shown; + = active, no number; & = joins results of further samples.

SMILES	ALR H2O2 inh	E coli growth	HNF4A DNA FP	FGF22 binding	Ecoli rRNA inh	Ecoli rRNA inh OD600	Ecoli rRNA inh RFP	AF4-AF9 inh	Vif TR-FRET
Cc1ccc(C(=O)NCC(=O)OCc2nnc(-c3ccccc3)o2)cc1	-5	0.7	-0.4	i	2	8	0.6	-1.5	17%
CCOC(=O)c1cccc(NS(=O)(=O)c2cnc[nH]2)c1	x	0.7	-0.2	x	x	x	x	x	26%
COc1ccc(CCNC(=O)CSc2nnc3ccc(-c4ccccn4)nn23)cc1	x	0.67	2.9	i	18	8	2.8	-0.1	-5%
CCCNC(=O)Nc1ccc2c(c1)C(=O)N(C)[C@H]1CC[C@H](CC(=O)Nc3ccc4c(c3)CCCC4)O[C@@H]1CO2	x	x	x	i	-11	-18	-0.5	1.3	x
C=CCn1c(SCC(=O)NCC(c2ccccc2)N(C)C)nc2sc3c(c2c1=O)CCC3 (configuration not stated)	x	0.72	2.0	i	-1	-9	3.6	0.7	x
COc1ccccc1CCC(=O)N1CCN(S(=O)(=O)c2cccc(F)c2)CC1	-2	0.64	2.1	i	5	-1	2.9	2.9	-2%
CCOC(=O)COn1c(=O)c(-c2ccccc2)[n+]([O-])c2ccccc21	13	0.68	3.1	i	11	5	0.4	1.0	0%
COc1ccccc1NC(=S)NCCSc1ccc(Cl)cc1	-2	0.7	-0.6	x	x	x	x	x	x
C[C@@H]1CN([C@@H](C)CO)C(=O)c2cc(NC(=O)CCCN(C)C)ccc2O[C@@H](C)CCCCO[C@@H]1CN(C)CC1CCCCC1	x	x	x	i	0	-2	-0.3	0.2	x
CO[C@H]1CN(C)C(=O)c2ccc(NS(C)(=O)=O)cc2OC[C@H](C)N(C(=O)C2CCCC2)C[C@@H]1C	x	x	x	i	3	2	-4.6	-2.6	x
CCCCn1c(=O)n(C)c(=O)c2c3c(sc21)COC(C)(C)C3	1	0.75	-2.2	x	x	x	x	x	7%
Cc1ccc(S(=O)(=O)N2C[C@@H](O)COC[C@H]3O[C@@H](CC(=O)NCC4CCCCC4)CC[C@@H]32)cc1	x	x	x	i	-9	-6	-0.6	11	x
CCOC(=O)C(NC(C)=O)C(OC(C)=O)c1cccc(N(CCO)CCO)c1 (configuration not stated)	x	0.74	0.3	x	x	x	x	x	-4%
COc1cc(S(=O)(=O)NCc2ccccc2)ccc1F	-3	0.66	1.6	x	x	x	x	x	4%
CCCc1ccc2oc(C(=O)NCCc3nc(C(=O)OCC)cs3)c(C)c2c1	x	0.71	-1.5	i	-8	-51	22	-0.5	-3%
CC(C)NC(=O)N(C)C[C@H]1Oc2ccc(NC(=O)Nc3ccc(C(F)(F)F)cc3)cc2CC(=O)N([C@@H](C)CO)C[C@@H]1C	x	x	x	i	-2	2	-0.9	-0.1	x
COc1cc(/C=C2\CCCc3c2nc2ccccc2c3C(=O)O)cc(OC)c1O	99*	0.7	2.8	i	6	-1	1.1	1.1	u
C[C@H](CO)N1C[C@H](C)[C@H](CN(C)Cc2ccccc2)Oc2ccc(NS(=O)(=O)c3ccc(F)cc3)cc2CC1=O	x	x	x	i	-4	-7	7.3	-16	x
COc1ccc(NS(=O)(=O)c2cc(NC(=O)c3nn(C)c(=O)c4ccccc34)ccc2OC)cc1	-4	0.71	4.5	x	10	5	0.4	-0.7	-6%
CCOc1cc(O)c(-c2[nH]ncc2-c2nc(C)cs2)cc1CC	x	0.66	0.0	i	-13	-4	12	7.1	-2%
CCOc1ccc(NC(=O)COC(=O)CCS(=O)(=O)c2ccc(C)cc2)cc1	-3	0.71	1.1	i	6	4	-1.5	-1.5	-4%
CCc1csc(N2[C@H](C#N)[C@@H](c3ccc(C4=CCCC4)cc3)[C@@H]2CO)n1	x	x	x	i	-4	-39	11	0.4	x
CCCc1nc(NC(=O)c2ccccc2)nc(NC(=O)c2ccccc2)n1	-5	0.69	-0.2	i	-6	-5	1.0	-19	-9%
S=c1[nH]nc(C2CCCCC2)n1/N=C/c1ccccc1	-2	x	1.4	i	5	7	-1.4	-1.4	-5%
O=C(C[C@@H]1CC[C@@H]2[C@H](COC[C@@H](O)CN2S(=O)(=O)c2cccc(Cl)c2)O1)Nc1ccc(-c2ccccc2)cc1	x	x	x	i	0	-3	8.3	-2.6	x
Cc1cc(C)n2nc3ccccc3c2n1	-3	0.69	-1.9	x	x	x	x	x	14%
CCN(CC)CCNC(=O)CCc1nn(C)c(=O)c2ccccc12	-5	0.67	1.4	x	x	x	x	x	3%
CN1c2ccc(-c3ccc(F)cc3)cc2[C@@H]2[C@@H](CCN2C(=O)Cc2cccnc2)[C@H]1CO	x	x	x	i	-3	-7	1.2	2.5	x
C[C@@H]1CN([C@H](C)CO)C(=O)c2cc(-c3ccccc3)cnc2O[C@H]1CN(C)C(=O)Cc1ccccc1	x	x	x	i	3	6	-0.5	-4.2	x
COC(=O)[C@H]1C[C@H]1[C@@H](NC(=O)c1cccnc1)c1ccccc1	-4	x	-0.4	i	-22	-19	10	1.3	x
CCOC(=O)c1cccc(NC(=O)CCS(=O)(=O)c2cccc3nsnc23)c1	44	0.69	16	x	x	x	x	x	21%
C[C@@H]1CN([C@H](C)CO)C(=O)Cc2cc(NC(=O)Cn3cnnn3)ccc2O[C@@H]1CN(C)C(=O)Nc1ccc(C(F)(F)F)cc1	x	x	x	i	0	0	-0.3	-1.1	x
Cc1ccccc1CN(C)C[C@H]1OCc2cnnn2CCCC(=O)N([C@H](C)CO)C[C@@H]1C	x	x	x	i	-1	-3	0.8	-3.7	x
CC1CCc2[nH]nc(C(=O)O)c2C1 (configuration not stated)	-1	0.71	-0.8	x	x	x	x	x	u
O=C(CCC1CCCC1)N1CCN(C(=O)c2ccco2)CC1	x	0.77	3.1	x	x	x	x	x	5%
CCCN1CCC(=O)N([C@H](CN=[N+]=[N-])CC(C)C)CC1	-12	x	-1.4	i	21	18	14	9.2	x
CN1c2ccc(Br)cc2[C@@H]2[C@@H](CCN2C(=O)Nc2ccccc2F)[C@@H]1CO	x	x	x	i	1	-33	-5.0	0.2	x
CCCS(=O)(=O)NC(=O)C1(C)CCN(C(=O)c2sccc2C)C1 (configuration not stated)	x	x	-0.5	i	6	10	-1.1	-0.3	x
COc1ccc(Nc2oc(-c3ccco3)nc2S(=O)(=O)c2ccc(F)cc2)cc1	x	0.74	-1.1	i	-29*	3.6*	7.3*	4.5	x
Cc1cc(C)c(C#N)c(SCC(=O)Nc2cccc(S(=O)(=O)N3CCCC3)c2)n1	x	0.67	3.0	i	4	9	1.0	0.3	-75%
Cc1nc2ccccn2c1C(=O)NN=C1CCCC1	4	0.68	3.0	i	6	1	0.5	-0.9	-5%
COc1cccc(-c2cn(-c3cccc(C(F)(F)F)c3)c(=S)[nH]2)c1	-3	0.69	-5.7	i	5	-8	0.1	3.3	-5%
O=C(Nc1cccc(-c2nnc(-c3ccccc3)o2)c1)c1ccco1	x	0.7	-1.2	x	x	x	x	x	5%
Cc1ccc(S(=O)(=O)N2CC(C)N(S(C)(=O)=O)C2)cc1 (configuration not stated)	1	0.64	-1.0	i	4	10	-2.4	-4.9	x
CCn1cc(CCCC(=O)NCc2cccnc2)c2ccccc21	22	0.69	7.3	i	-5	0	1.3	2.0	-6%
Cc1cc(N2C(=O)C(O)=C(C(=O)c3ccco3)C2c2cccnc2)no1 (configuration not stated)	4	0.68	x	x	x	x	x	x	u
O=C(O)c1ccc(NC(=O)c2cccc(S(=O)(=O)Nc3ccc(C(=O)O)cc3)c2)cc1	x	0.67	0.0	+	10	12	-1.2	-1.7	x
C[C@@H]1CN([C@H](C)CO)S(=O)(=O)c2ccc(C#Cc3ccccn3)cc2O[C@@H]1CN(C)CC1CC1	x	x	x	i	2	6	2.2	1.5	x
COc1ccc(F)cc1CN1CCN(CC(=O)Nc2ccccc2C(=O)NC2CC2)CC1	0	0.69	-1.5	i	4	11	0.8	3.0	-4%
O=C1c2ccccc2C(=O)N1CCCCCCc1ccccc1	-13	0.76	2.5	i	-1	-13	-4.6	-0.5	x
O=C1c2cc(Br)ccc2N(Cc2ccc(Br)cc2)S(=O)(=O)C1c1cc(Cl)c(Cl)cc1[N+](=O)[O-] (configuration not stated)	2	x	-12	x	-55	-78	-20	x	x
O=C(Nc1ccc2c(c1)[C@H]1C[C@H](CC(=O)N3CCc4ccccc4C3)O[C@H](CO)[C@H]1O2)c1ccc2c(c1)OCO2	x	x	x	i	-14	-28	5.0	4.1	x
CSC(=NC#N)N1CCN(c2cccc(Cl)c2)CC1	94*	0.64	0.3	x	x	x	x	x	-5%
Cc1nn(-c2nc3ccccc3s2)c(N)c1-c1ccc(Cl)cc1	-23	0.75	0.3	x	x	x	x	x	x
NC(=O)c1ccc(SCC(=O)OCC(=O)NC2CCCCCCC2)c([N+](=O)[O-])c1	x	0.7	3.1	i	16	12	0.9	-5.1	2%
O=C(Nc1ccc(Br)cc1)c1cccc(N2C(=O)C3C4C=CC(C4)C3C2=O)c1 (configuration not stated)	-5	0.69	-2.9	i	-26	-22	-1.1	1.8	x
COCC#Cc1ccc([C@@H]2[C@H](CO)N3CCCCN(S(=O)(=O)c4ccccc4F)C[C@@H]23)cc1	x	x	x	i	4	8	-1.9	6.8	x
Cc1c(OCC(=O)N[C@H](C(=O)O)c2ccccc2)ccc2c3c(c(=O)oc12)CCCC3	70	0.79	-2.2	i	x	x	x	-2.4	x
C[C@H](CO)N1C[C@H](C)[C@H](CN(C)S(=O)(=O)c2cccs2)Oc2ncc(-c3cc4ccccc4o3)cc2C1=O	x	x	-2.2	i	-3&-2	-7&12	3.0&2.3	-0.2&0.2	-1%
O=C(CSc1nnc2ccccn12)Nc1ccc(N2CCOCC2)cc1	x	0.7	-3.9	i	-5	-7	-2.8	0.2	x

Following part
SMILES	ALR H2O2 inh	E coli growth	HNF4A DNA FP	FGF22 binding	Ecoli rRNA inh	Ecoli rRNA inh OD600	Ecoli rRNA inh RFP	AF4-AF9 inh	Vif TR-FRET
COc1cc2[nH]c(=S)n(Cc3ccc(C)cc3)c(=O)c2cc1OC	16	0.68	0.0	i	-1	1	2.0	-0.1	x
CC(C)CN(C(=O)C(c1ccccc1)c1ccccc1)c1c(N)n(CC(C)C)c(=O)[nH]c1=O	0	0.72	-1.9	i	22	14	0.6	-2.0	x
NC(=O)c1ccc(NCC2COc3ccccc3O2)c([N+](=O)[O-])c1 (configuration not stated)	-2	0.69	3.9	i	-18	-10	-10.0	0.7	14%
COc1ccccc1COCC(O)CN(Cc1ccco1)Cc1ccccc1O (configuration not stated)	6	0.65	-2.8	x	x	x	x	x	x
C=CCn1c(SCC(=O)Nc2cc(C)ccc2C)nnc1-c1cnccn1	x	0.69	-2.3	x	x	x	x	x	-2%
CCC(CC)C(=O)Nc1cccc(C(=O)N2CCCCCC2)c1	-4	0.66	2.6	x	x	x	x	x	24%
Cc1cc(C(=O)CSc2nnnn2-c2ccccc2)c(C)n1CC1CCCO1 (configuration not stated)	x	0.72	-0.1	x	x	x	x	x	9.8µM*
CCN1CCN(C(CCc2ccccc2)C(=O)NC2CCCCC2)CC1 (configuration not stated)	x	x	7.4	i	5	21	11	-3.1	x
O=C(C[C@H]1C=C[C@H](NC(=O)Nc2ccc(C(F)(F)F)cc2)[C@H](CO)O1)NCc1cc(F)cc(F)c1	x	x	x	i	-9	9	0.2	0.0	x

Screening data (PubChem BioAssay)

Some of the compounds tested (hit frequency here may not be typical).
